Lassa entry inh: Lassa virus entry inhibition. Lassa virus pseudotype entry inhibition, cell reporter; control for the full effect not named in the record. Potency, µM (highest dose often 37.9 µM), for inactives: at the highest dose activity change, negative = inhibition, hits mostly inhibitors. 300,000 tested, 1.2% active. AID 540256; active means well fitted inhibition curve with a large enough effect; inconclusive means small, poorly fitted or top-dose-only effect, or effect the other way; inactive means flat fitted curve, though single readings scatter; tested in HEK293 cells; note: % is set by controls: 0 for no effect and ±100 for the full control effect; nearly all actives have a fitted effect of over 50% in size; luciferase read-out
StopGo reporter: FMDV 2A StopGo reporter, luciferase signal; Potency, µM (titrated, usually from 57.9 µM), inactives show at the top dose signal change, negative = less light; human cells with a luciferase reporter of 2A StopGo recoding; control for the full effect not named in the record; 410,000 tested, 1.2% active; active = well fitted falling curve with a large enough effect; inconclusive = small, poorly fitted or top-dose-only effect; inactive = no such curve, though single readings can be large or run the other way; tested in HEK293T cells; note: % is set by controls: 0 for no effect and ±100 for the full control effect; nearly all actives have a fitted effect of over 45% in size; luciferase light after 4 h
SARS PLpro yeast: blocks SARS-CoV papain-like protease in a yeast assay; S. cerevisiae expressing SARS-CoV PLpro, growth rescue; control for the full effect not named in the record; Potency, µM (doses to about 32.9 µM), for inactives: at the highest dose activity, positive = growth rescue; 330,000 tested, 0.19% active; AID 485353; note: 0% is about no effect; nearly all actives have a fitted effect of over 55% in size; growth read by luminescence after 48 h
Cruzain inh noDet: blocks cruzain activity in detergent-free assay. P25779. 200,000 tested, 2.3% active. AID 1476. purified cruzain, Z-FR-AMC fluorescence, no detergent. Potency, µM, inactives show max response, negative = inhibition, most hits filed as inhibitors; active = well fitted curve in the direction sought with a large enough effect; inconclusive = small, poorly fitted or top-dose-only effect, or another doubt; inactive = no such curve, though single readings can be large; an effect the other way counts as inactive or inconclusive;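 note: plate controls were enzyme without inhibitor for no effect and buffer without enzyme for full effect; nearly all actives have a fitted effect of over 40% in size; top concentration of the series not given in the record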
Target sequence (P25779 123-467 limits assumed): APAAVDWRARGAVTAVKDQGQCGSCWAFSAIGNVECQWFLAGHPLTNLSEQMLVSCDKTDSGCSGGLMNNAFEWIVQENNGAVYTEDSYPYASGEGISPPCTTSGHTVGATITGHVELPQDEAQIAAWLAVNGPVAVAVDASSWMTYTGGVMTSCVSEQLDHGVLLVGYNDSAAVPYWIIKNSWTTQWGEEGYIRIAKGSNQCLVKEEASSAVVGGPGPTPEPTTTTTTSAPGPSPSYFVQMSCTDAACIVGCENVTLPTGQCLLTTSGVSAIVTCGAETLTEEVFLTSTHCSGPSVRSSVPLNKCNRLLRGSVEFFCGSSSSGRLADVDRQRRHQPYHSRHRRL
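Detergent-free condition (0.00005% Triton X-100) in acetate buffer pH 5.5 with DTT. 1.5 nM enzyme and compound were pre-mixed 15 min, then 2 uM Z-FR-AMC substrate added; reaction progress from fluorescence change between first and third reads (60 s).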
RE007 growth inh: less growth of the S. pombe RE007 Vpr strain; S. pombe RE007 Vpr strain, BacTiter-Glo ATP luminescence, 24 h; control for the full effect not named in the record; Potency, µM (highest dose often 92.2 µM), without a hit: at the top dose activity change, negative = less growth; 360,000 tested, 0.21% active; active = well fitted falling curve with a large enough effect; inconclusive = small, poorly fitted or top-dose-only effect; inactive = no such curve, though single readings can be large or run the other way;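 note: % is set by controls: 0 for no effect and ±100 for the full control effect; nearly all actives have a fitted effect of over 50% in size; the assay follows cell death caused by Vpr and the record does not say whether a fall means rescue or toxicity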
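Fission yeast strain RE007, carrying one chromosomally integrated HIV-1 vpr copy, was seeded at OD 0.01 in PMG+AL medium with 23 nL pinned compound. After 24 h at 30 °C and 99% humidity, viability was read by BacTiter-Glo luminescence.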
Cruzain inh Det: inhibitors of Trypanosoma cruzi cruzain with detergent; AID 1478; purified cruzain, Z-FR-AMC fluorescence, 0.01% Triton; 200,000 tested, 0.43% active; Potency, µM, inactives show max response, negative = inhibition, usual class: inhibitors; P25779; active = well fitted curve in the direction sought with a large enough effect; inconclusive = small, poorly fitted or top-dose-only effect, or another doubt; inactive = no such curve, though single readings can be large; an effect the other way counts as inactive or inconclusive;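 note: plate controls were neutral wells for no effect and buffer without enzyme for full effect; nearly all actives have a fitted effect of over 40% in size; top concentration of the series not given in the record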
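Detergent-containing arm of a paired screen for aggregation-based inhibition: 0.01% Triton X-100 present. Cruzain at 1.5 nM cleaved 2 uM Z-FR-AMC at pH 5.5 with 5 mM DTT; AMC fluorescence gain over 60 s measured activity.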
Marburg entry inh: Marburg virus entry inhibition; 300,000 tested, 1.8% active; Potency, µM (doses to about 37.8 µM), without a hit: at the top dose activity change, negative = inhibition, actives largely listed as inhibitors; Marburg virus pseudotyped entry inhibition, cell reporter; control for the full effect not named in the record; about a third of the inactives were read at about 46 µM; active = well fitted inhibition curve with a large enough effect; inconclusive = small, poorly fitted or top-dose-only effect, or effect the other way; inactive = flat fitted curve, though single readings scatter; tested in HEK293 cells; about a fifth of its hits are not listed in these tables; note: % is set by controls: 0 for no effect and ±100 for the full control effect; luciferase read-out
NS1 function inh: influenza NS1 inhibition; S. cerevisiae slowed by influenza A NS1, growth recovery by OD600; Potency, µM (top dose mostly 46.1 µM), without a hit: at the highest dose activity, positive = more growth; 270,000 tested, 0.4% active; note: actives are rising curves; nearly all actives have a fitted effect of over 50% in size
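OD600 was taken as the measure of yeast growth restored by compound in an NS1-expressing S. cerevisiae strain. Cells had been washed out of glucose medium and diluted 1:100 into galactose -URA medium, pH 6.0.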
Starred values were filed as active, the others as inactive; ? = inconclusive; nt = not tested or not shown; [ ] = another dose, or the depositor's remark. Unless noted, calls come from the whole dose curve; as a rule, active means well fitted rising curve with a large enough effect; inconclusive means small, poorly fitted or top-dose-only effect; inactive means no such curve, though single readings can be large or run the other way. Potency is the fitted concentration of half-maximal effect. Compounds as they come (roughly 4.8% active in at least one column).

SMILES	Lassa entry inh	StopGo reporter	SARS PLpro yeast	Cruzain inh noDet	RE007 growth inh	Cruzain inh Det	Marburg entry inh	NS1 function inh
CC(C)Cn1c2c(c(O)c(C(=O)Nc3nc4ccccc4s3)c1=O)CCCC2	-1.8%[46.1 µM]	25.0%	0.5%	nt	4.2%	nt	?	-2.8%
Cc1cc(N2C(=O)c3ccc(C(=O)Nc4ccc(O)cc4C(=O)O)cc3C2=O)no1	3.2%[46.1 µM]	3.9%	-0.8%	nt	2.2%	nt	-1.8%[46.1 µM]	5.3%
CC(c1n[nH]c(=S)n1-c1ccc(Cl)cc1)N(C)C (stereo not drawn)	12.8%	-6.4%	14.9%	4.5%	-6.2%	-1.8%	12.1%	-8.8%
O=C(NCCS(=O)(=O)N1CCN(c2ccccc2)CC1)C(c1ccccc1)c1ccccc1	?	-17.7%	nt	1.6%	nt	-3.1%	nt	nt
Cc1cc(C)c2nc(N(CCCN(C)C)C(=O)c3ccc(S(=O)(=O)N4CC(C)OC(C)C4)cc3)sc2c1 (stereo not drawn)	?	0.6%	-5.2%	nt	-15.0%	nt	?	nt
CCCCNC(=O)N(C)c1nc2ccccc2s1	-6.4%	17.9%	-2.0%	nt	-15.7%	nt	10.5%	-10.4%
CC(C)CCNC(=O)C(C)N(Cc1ccc(F)cc1)C(=O)c1ccc(CN2CCCCC2)o1 (stereo not drawn)	-9.4%	-24.1%	-2.3%	8.2%	-0.5%	3.4%	-5.7%	-5.3%
O=C(Oc1coc(CSc2ncccn2)cc1=O)c1ccco1	11.7%[46.1 µM]	6.7%	0.5%	nt	1.2%	nt	20.0%[46.1 µM]	nt
CCOCCn1c(=O)c2c(nc3n2CC(C)CN3CCc2ccccc2)n(C)c1=O (stereo not drawn)	nt	0.0%	-4.2%	nt	-2.1%	nt	nt	5.9%
CC(C)=CCCC(C)CN1CCC(N2CCC(C(=O)N3CCCC3)CC2)CC1 (stereo not drawn)	nt	?	-1.1%	nt	13.3%	nt	nt	-5.5%
CCOC(=O)N1CCN(CC(=O)Nc2c(C(=O)OC)[nH]c3cc(C)ccc23)CC1	13.9%	?	6.3%	3.9%	18.4%	-2.7%	-5.3%	-12.1%
CC1Cc2ccccc2N1S(=O)(=O)c1nnc(NC(=O)c2cccc(F)c2)s1 (stereo not drawn)	10.8%[46.1 µM]	?	nt	-8.4%	nt	-1.2%	nt	nt
c1ccc(-c2cc3c(N4CCN(c5ccccc5)CC4)ncnc3s2)cc1	-25.1%	31.6µM*	-1.5%	nt	6.3%	nt	?	16.1%
Cc1ccc(C)c(NC(=S)NCCc2cnc[nH]2)c1	2.2%	-18.0%	4.8%	nt	-16.8%	nt	0.1%[46.1 µM]	0.9%
CN(CCCNC(=O)C1CCC(CNS(=O)(=O)c2ccccc2)CC1)Cc1ccccc1 (stereo not drawn)	nt	-15.5%	-3.0%	nt	4.5%	nt	nt	-11.6%
CCc1nc2ccccc2n1CC(=O)NC1CCS(=O)(=O)C1 (stereo not drawn)	-11.9%	-15.5%	nt	nt	3.0%	nt	7.0%	nt
Cc1cc(C(=O)COC(=O)c2nn(C)c(=O)c3ccccc23)c(C)n1C	-16.5%	16.4%	nt	nt	-5.0%	nt	10.4%[46.1 µM]	nt
Cc1ccccc1C(=O)NC(=S)Nc1sc2c(c1C#N)CCC(C)C2 (stereo not drawn)	-7.1%	-7.8%	2.2%	15.8µM*	7.5%	1.9%	-14.4%[46.1 µM]	18.9%
COc1ccc(CC(=O)OC(C)CN2CCCC2)cc1 (stereo not drawn)	1.7%	8.2%	1.7%	0.4%	-2.7%	3.5%	23.3%[46.1 µM]	-0.7%
Cc1ccc(S(=O)(=O)N2CCCC2C(=O)OCc2nc3sc(C)c(C)c3c(=O)[nH]2)cc1 (stereo not drawn)	11.3%	-11.2%	4.2%	-15.9%	7.8%	-4.9%	?	19.9%
COc1ccc(N2C(=O)c3ccccc3NC23C(=O)N(C)c2ccccc23)cc1 (stereo not drawn)	-1.1%	20.8%	-6.1%	-1.2%	-10.7%	2.5%	-1.1%	-19.9%
COc1ccccc1N1CCN(c2ncc3c(n2)CCN(Cc2ccccc2C)C3)CC1	0.8%[46.1 µM]	-20.7%	nt	-9.5%	nt	0.5%	nt	nt
CSc1ccc(S(=O)(=O)NC2CCCCC2)cc1	2.3%	25.3%	-38.5%	3.1%	18.0%	-3.9%	9.4%	-102.7%
O=C(NCCOCCn1c(=O)oc2ccccc21)Nc1ccc(F)cc1F	-7.3%[46.1 µM]	-13.9%	nt	11.3%	nt	0.2%	0.3%[46.1 µM]	nt
Cc1cc(C)n2nc(S(=O)(=O)N(C)Cc3ccccc3)nc2n1	-15.2%	-2.5%	-0.4%	-1.3%	3.1%	-7.3%	?	-6.0%
COC(=O)c1c(C)oc(C)c1S(=O)(=O)NCc1ccc(Cl)cc1	nt	84.1%[activator]	1.3%	nt	-6.9%	nt	nt	-5.1%
O=S(=O)(c1ccc(Br)cc1)c1nc(-c2ccccc2)oc1NCCN1CCOCC1	?	-23.7%	-5.6%	nt	-11.2%	nt	nt	2.2%
Cn1c(C(=O)NCCc2ccccc2)cc2cc(S(=O)(=O)N3CCCCC3)ccc21	?	?	nt	4.5%	nt	-3.0%	nt	nt
O=C(Cn1cnc2ccccc21)c1ccccc1	6.2%[46.1 µM]	-9.8%	2.7%	nt	3.0%	nt	18.9%[46.1 µM]	13.4%
C/C=C/c1ccc(OCCOc2ccc(C=O)cc2OC)c(OC)c1	10.1%	-17.4%	nt	12.8%	-1.1%	-6.1%	-3.6%	1.5%
CCN(CC)CCC(c1ccc2c(c1)OCO2)c1c(OC)cc(OC)c2c(-c3ccccc3)cc(=O)oc12 (stereo not drawn)	nt	38.5%[activator]	-2.4%	nt	15.6%	nt	nt	-9.3%
O=C(CCCC1=NS(=O)(=O)c2ccccc2N1)OCc1ccc(Cl)cc1	-12.3%[46.1 µM]	6.9%	-0.4%	nt	10.9%	nt	-6.0%[46.1 µM]	-11.9%
O=C(O)CC(=O)Nc1ccccc1C(=O)O	0.4%	5.2%	2.0%	-5.3%	6.5%	2.7%	2.2%	-5.5%
COc1ccc(Nc2nc(C)cc(C)n2)cc1Cl	5.2%[46.1 µM]	14.8%	-5.8%	nt	2.3%	nt	?	-22.3%
COc1ccc2c(CN(C)c3ccccc3)cc(=O)oc2c1	-17.4%	-26.3%	-18.6%	-8.1%	-17.7%	-5.4%	?	-53.1%
CC(C)=CCN1CCN(Cc2cccn2-c2ncccn2)CC1CCO (stereo not drawn)	2.3%	-8.8%	0.4%	nt	-17.8%	nt	?	0.9%
O=C(NN1C(=O)c2ccc(-c3ccc4c(c3)C(=O)N(NC(=O)c3cccnc3)C4=O)cc2C1=O)c1cccnc1	19.5%[46.1 µM]	1.4%	-1.0%	nt	1.3%	nt	-10.4%	nt
O=C(CC1CCCCC1)NCC1CCCO1 (stereo not drawn)	2.4%	10.5%	nt	-2.7%	3.6%	6.3%	3.8%	-1.1%
COc1cccc(NC(=O)CN(C)C(=O)Cn2cnc3ccccc3c2=O)c1	11.0%	-4.7%	-0.6%	nt	17.2%	nt	-1.2%	nt
O=C(CCc1ccccc1)N1CCN(Cc2ccc(F)cc2Cl)CC1	nt	-19.5%	-1.3%	nt	-14.4%	nt	nt	-11.4%
COc1ccc(CCNCc2ccc(OCc3ccc(Cl)nc3)c(OC)c2)cc1OC	1.9%	0.0%	10.6%	-1.9%	9.3%	7.6%	12.6µM*	-3.1%
Cc1ccc(/C=C/C(=O)C2C(=O)c3ccccc3C2=O)cc1	?	nt	-20.9%	-7.7%	-0.5%	-1.1%	?	-26.0%
CCC(C)(C(=O)NC1CCCC1)N(Cc1ccco1)C(=O)Cc1cccs1 (stereo not drawn)	11.6%	-0.1%	-7.5%	-0.4%	-3.3%	-1.0%	-0.5%	5.6%
Fc1ccccc1-c1csc(=Nc2cccnc2)n1CC1CCCO1 (stereo not drawn)	-1.2%	?	-4.8%	-2.4%	8.5%	-0.5%	-19.7%	-3.4%
Cc1ccc(CN(C(=O)COc2ccc(Br)cc2)c2ccccn2)o1	7.9%[46.1 µM]	19.6%	nt	-3.3%	nt	-6.0%	4.6%[46.1 µM]	nt
COc1ccc(S(=O)(=O)N/N=C\c2ccc3c(c2)OCO3)cc1	7.0%	4.4%	3.3%	-2.0%	11.8%	-2.0%	6.9%	-7.4%
COc1cc([N+](=O)[O-])ccc1NC(=O)Nc1ccc(C(=O)N2CCCC2)cc1	-31.1%	2.8%	13.3%	nt	-6.6%	nt	-22.5%	1.4%
CCc1ccc(CNC(=O)c2cnc3sc(N4CCOCC4)nn3c2=O)cc1	?	-0.1%	nt	10.6%	nt	-2.5%	nt	nt
NC1=C(Cl)C(=O)c2ccc(S(N)(=O)=O)cc2C1=O	?	2.51µM*	nt	nt	-28.8%	nt	2µM*	nt
Cn1c(N)c(C(=O)COC(=O)COc2ccc3ccccc3c2)c(=O)n(C)c1=O	1.2%	-10.4%	-3.0%	nt	2.3%	nt	2.2%[46.1 µM]	nt

Further compounds.
SMILES	Lassa entry inh	StopGo reporter	SARS PLpro yeast	Cruzain inh noDet	RE007 growth inh	Cruzain inh Det	Marburg entry inh	NS1 function inh
O=C(NCc1cccs1)C(=O)NCC1OCCCN1S(=O)(=O)c1cccs1 (stereo not drawn)	-0.5%	-10.8%	-3.1%	nt	-4.3%	nt	-8.7%	nt
CC(C)NC(=O)C1CCCN(c2ncnc3onc(-c4ccc(F)cc4)c23)C1 (stereo not drawn)	-14.9%[46.1 µM]	-7.5%	nt	-8.1%	nt	-0.5%	nt	nt
COc1ccc(CNCCSc2nnnn2-c2ccccc2)cc1	-3.0%[46.1 µM]	6.2%	nt	-11.7%	nt	-0.2%	0.4%[46.1 µM]	nt
Cc1ccc(OCC(=O)Nc2cccc(S(=O)(=O)N3CCCCC3)c2)c([N+](=O)[O-])n1	-0.6%	-23.0%	0.6%	-0.3%	-8.1%	-5.2%	?	-0.1%
Clc1ccc(-c2ccnc(Oc3ccc4ccccc4c3)n2)cc1	-27.0%	-21.7%	0.3%	?	3.3%	-5.6%	8.8%[46.1 µM]	6.4%
COc1ccc(S(=O)(=O)c2c(Nc3cccc(Cl)c3)sc(C(=O)c3ccccc3)c2N)cc1	?	14.4%	nt	3.98µM*	nt	-4.1%	?	nt
CCOC(=O)/C=C/C(=O)OCC(=O)Nc1ccc([N+](=O)[O-])cc1	nt	-25.9%	-4.0%	nt	-29.8%	nt	nt	-105.5%

Source: PubChem BioAssay (National Center for Advancing Translational Sciences (NCATS))
